# Source: PubChem BioAssay (National Center for Advancing Translational Sciences (NCATS))
# VACV Venus inh – inhibitors of vaccinia virus (Venus reporter); Vaccinia virus Venus reporter expression, fluorescence; Potency, µM (doses to about 36.5 µM), without a hit: top-dose activity change, negative = inhibition, usual class: inhibitors; 0.46% of 330,000 active; AID 720580; active means well fitted inhibition curve with a large enough effect; inconclusive means small, poorly fitted or top-dose-only effect; inactive means no such curve, though single readings can be large or run the other way; tested in A549 cells; further: nearly all actives have a fitted effect of over 30% in size; inactives centre near -10
# VACV mCherry inh – inhibitors of vaccinia virus infection (mCherry reporter signal); 0.63% of 310,000 active; Vaccinia virus mCherry reporter infection, fluorescence; about a quarter of the inactives have no number; Potency, µM (doses to about 36.5 µM), without a hit: at the highest dose activity change, negative = inhibition, most hits filed as inhibitors; active = well fitted inhibition curve with a large enough effect; inconclusive = small, poorly fitted or top-dose-only effect; inactive = no such curve, though single readings can be large or run the other way; tested in A549 cells; further: nearly all actives have a fitted effect of over 35% in size; inactives centre near -10
# * marks the source's active call; other numbers are inactive results; i = inactive; ? = inconclusive; · = not tested or not shown; & = joins results of further samples; [ ] = remark or other dose. On the % scale 0 is the no-effect control and ±100 the full control effect; potency means the concentration at half of the fitted maximal effect. Compounds as they come; about 0.82% have a hit in one of these screens.
# Order of results – VACV Venus inh	VACV mCherry inh
> O=C(NNC(=O)C1CC(c2cccnc2)=NO1)Nc1cccc(F)c1 (centres undefined)
  -20%	i
> C/C(CC(=O)NC1C2CC3CC(C2)CC1C3)=N\NC(=O)Cc1cccs1 (centres undefined)
  -15%	-12%
> O=C(NCc1cccnc1)c1nn(-c2ccccc2F)nc1CO
  -15%	-12%
> CC(=O)c1c(C)n([O-])c2cc(F)c(F)cc2[n+]1=O
  -7%	?
> COc1ccc(CNC(=O)CN(C(=O)c2csnn2)c2ccc(C(C)=O)cc2)cc1
  0%	-4%
> Cc1cccc(-n2cnc3c(c2=O)c2nc4ccccc4nc2n3Cc2ccco2)c1
  -7%	·
> C[C@@]12CCC3[C@@](CCC4[C@@]3(C)CCC[C@@]4(C)C(=O)N3CCOCC3)(CC1=O)C2 (some centres undefined)
  -14%	i
> CCCCN=C1SC(C(=O)Nc2sc3c(c2C(=O)OC)CCC3)C(N)=C1C(=O)N1CCOCC1 (centres undefined)
  -11%	i
> O=C(CCc1nnc(CCCCc2ccccc2)o1)NCCN1CCCCC1=O
  -7%	-3%
> COc1ccc(N2CCN(C(=O)C3CCCN(S(=O)(=O)c4ccc(C)cc4)C3)CC2)cc1 (centres undefined)
  3%	-6%
> O=C1CC2(CCCCCC2)Oc2ccc(Cl)cc21
  -14%	i
> NC(=O)C(c1ccc(Br)cc1)c1ccc(C(=O)c2ccccc2)cc1 (centres undefined)
  -14%	?
> O=C1COc2ccc(C(=O)COC(=O)CCSc3ccc(Cl)cc3)cc2N1
  -4%	6%
> Cc1cccc(C)c1NC(=S)NC(C)CCc1ccccc1 (centres undefined)
  -21%	0%
> CCOC(=O)c1ccc(NC(=O)c2c(NCc3cccc(OC)c3OC)sc3c2CCC3)cc1
  -5%	-8%
> CC1=Nn2c(nnc2-c2n[nH]c3c2CCC3)SC1
  -12%	?
> COc1cc(CC(NC(C)=O)C(=O)NC2CCN(c3nc(OC)nc(OC)n3)CC2)cc(OC)c1 (centres undefined)
  1%	-16%
> CCOC(=O)C1CCN(c2c(NCCCN3CCN(Cc4ccccc4)CC3)c(=O)c2=O)CC1
  -10%	i
> O=C1NC(=S)N(C2CC2)C(=O)/C1=C/c1ccc2c(c1)CCN2CCCCl
  7%	-8%
> O=C(NCc1ccc2c(c1)OCO2)C1CCC(CNS(=O)(=O)c2cccc3nsnc23)CC1 (centres undefined)
  -16%	i
> CC1C(=O)N(Cc2cn(CC3CCCCC3)nn2)CCS(=O)(=O)N1Cc1ccc(-c2cccc(N(C)C)c2)cc1 (centres undefined)
  ?	-24%
> Cc1ccc(C)c(N2CCN(C(=O)CN3C(=O)COc4ccc(S(=O)(=O)N5CCOCC5)cc43)CC2)c1
  8%	-7%
> COc1cc(Nc2ccc(S(=O)(=O)N3CCN(C)CC3)cc2[N+](=O)[O-])cc(OC)c1
  -5%	?
> CCCCCCSc1nc2c(c(=O)[nH]c(=O)n2C)n1C
  -15%	4%
> COc1cccc(-c2cc(C(F)(F)F)n3nc(C(=O)Nc4c(C)n(C)n(-c5ccccc5)c4=O)cc3n2)c1
  -9%	-4%
> COc1cc(NC(=O)CCCn2c(=O)oc3ccccc32)cc(OC)c1
  -15%	i
> CCc1nc2ccc(C(=O)Nc3cccc(OCC(=O)N(C)C)c3)cn2c1N(CC)CCOC
  8%	27%
> CN(C)CCCN(C(=O)c1ccc2c(c1)CCCC2)c1nc2ccc(Cl)cc2s1
  ?	?
> O=[N+]([O-])c1cccc(COc2ccccc2CN2CCCCC2)c1
  7%	?
> CCOC(=O)c1ccc(NC(=O)c2nc[nH]c2C(=O)N[C@@H](CCCCNC(=O)OC(C)(C)C)C(=O)OC(C)(C)C)cc1
  ?	?

# By substructure: the entries above with a halogen (nine)
# Order of results – VACV Venus inh	VACV mCherry inh
> O=C(NNC(=O)C1CC(c2cccnc2)=NO1)Nc1cccc(F)c1 (centres undefined)
  -20%	i
> O=C(NCc1cccnc1)c1nn(-c2ccccc2F)nc1CO
  -15%	-12%
> CC(=O)c1c(C)n([O-])c2cc(F)c(F)cc2[n+]1=O
  -7%	?
> O=C1CC2(CCCCCC2)Oc2ccc(Cl)cc21
  -14%	i
> NC(=O)C(c1ccc(Br)cc1)c1ccc(C(=O)c2ccccc2)cc1 (centres undefined)
  -14%	?
> O=C1COc2ccc(C(=O)COC(=O)CCSc3ccc(Cl)cc3)cc2N1
  -4%	6%
> O=C1NC(=S)N(C2CC2)C(=O)/C1=C/c1ccc2c(c1)CCN2CCCCl
  7%	-8%
> COc1cccc(-c2cc(C(F)(F)F)n3nc(C(=O)Nc4c(C)n(C)n(-c5ccccc5)c4=O)cc3n2)c1
  -9%	-4%
> CN(C)CCCN(C(=O)c1ccc2c(c1)CCCC2)c1nc2ccc(Cl)cc2s1
  ?	?

# (further entries)
# Order of results – VACV Venus inh	VACV mCherry inh
> CCc1nc2c(OCC3CCCCC3)cccn2c1N(C)C(=O)c1ccccc1F
  -13%	-23%
> COc1ccc(NC(=O)c2cc3n(n2)C(C(F)(F)F)CC(c2ccco2)N3)cc1 (centres undefined)
  ?	·
> N#CCCN(C(=O)Nc1ccc(Cl)cc1)c1ccccc1
  -7%	·
> Cc1sc2ncnc(SC(C)C#N)c2c1C (centres undefined)
  ?	i
> CCOC(=O)C1=C(C)N(C)C(=S)NC1c1c(OCC)ccc2ccccc12 (centres undefined)
  2%	-1%
> Clc1ccc(C=NNc2ccccn2)c(Cl)c1
  -7%	-1%
> COc1ccc(NC(=O)CCN2CCN(CCO)CC2)cc1
  -10%	-11%
> CCOC(=O)Cc1nn(Cc2ccc(Cl)cc2)c(=O)c2ccccc12
  -24%	?
> C=CCn1ccc(=O)nc1SC
  -10%	-21%
> O=c1c(-c2ccccc2)n[nH]c2ccccc12
  -3%	·
> CCCCNC(=O)C1(C)CCN1C(=O)c1ccc2sccc2c1 (centres undefined)
  1%	i
> COCCN(C(=O)COC(=O)CCS(=O)(=O)c1ccccc1)c1c(N)n(Cc2ccccc2)c(=O)[nH]c1=O
  -18%	-3%
> CCOC(=O)C1CCN(C(=O)c2cc(C)n(C(C)(C)C)n2)CC1
  -11%	-12%
> CCn1c(Cc2ccccc2)nnc1SCc1nc2ccccc2c(=O)[nH]1
  -9%	-21%
> CCOC1=C2[C@@H](CN(S(=O)(=O)c3ccc(C)cc3)[C@H]2c2ccc(CC)cc2)[C@H]2C(=O)N(C)C(=O)[C@H]2C1
  -10%	13%
> COc1cc(/C=N/NC(=O)c2sc(N)c(C#N)c2C)ccc1O
  ?	-6%[1.46 µM]
> O=C(COc1coc(CN2CCc3ccccc3C2)cc1=O)Nc1cccc(F)c1
  -7%	-16%
> O=C(O)COc1ccc(/C=N/NC(=O)C(O)(c2ccccc2)c2ccccc2)cc1
  -17%	i
> Cc1ccc(S(=O)(=O)NCCC(=O)OCC(=O)NCCc2ccccc2)cc1C
  -12%	i
> COc1ccc(CC2(C)OC(c3ccc([N+](=O)[O-])cc3)=NN2C(C)=O)cc1 (centres undefined)
  -3%	0%
> Nc1nc(-c2ccccc2)cc(-c2ccccc2O)n1
  11µM*	?
> CCc1cccc(NC(=O)C2CCC(CNS(=O)(=O)c3csc(C(N)=O)c3)CC2)c1 (centres undefined)
  -3%	-7%
> CCOC(=O)c1sc(NC(=O)C2c3ccccc3Oc3ccccc32)c(C#N)c1C
  -10%[7.34 µM]	-11%[7.34 µM]
> COc1cc(C)nc(NC(=O)COc2ccc(Cl)cc2C)n1
  -7%	-9%
> CC1OC2(C)OC(=N)C1(C#N)C(C#N)(C#N)C2c1ccccc1 (centres undefined)
  60%[activator]	6%
> O=C(CCc1nnc(Cc2c[nH]c3ccccc23)o1)NCC1CC12CCCCC2 (centres undefined)
  -13%	-5%
> CCOC(=O)c1nc(Nc2ccc(C)cc2)c2ccccc2n1
  -21%	-6%
> CSc1ccccc1C(=O)OCC(=O)NC1CCS(=O)(=O)C1 (centres undefined)
  2%	6%
> CC[n+]1ccnc2ccccc21
  13µM*	18µM*
> CCOC(=O)c1ccc2nc(C)cc(Nc3ccc(OC(C)C)cc3)c2c1
  -7%	-17%

# Remaining list, next part:
Molecule,VACV Venus inh,VACV mCherry inh
CC(C)=CC(=O)OCC(=O)NC(=O)NC(C)(C)C,-1%,-14%
CSc1ccc(CN2CCC2(C)C(=O)NCc2ccc3c(c2)OCO3)cc1 (centres undefined),-7%,i
COc1ccc2c3c([nH]c2c1)C1CC2C(CC(O)C(OC)C2CO)CN1CC3 (centres undefined),2%,-6%
Cc1ccccc1-n1cc(CNC(=O)CN2Cc3ccccc3OC(C)C2)cn1 (centres undefined),-1%,-5%
COc1ccc(NC(=O)C2=C(C)Nc3c(C(=O)Nc4ccc(C)cc4)cnn3C2c2cc(OC)ccc2OC)cc1 (centres undefined),-16%,-1%
Cc1ccc(-c2ccnc(-n3ncc(C(=O)N(C)Cc4cccc5ncccc45)c3C3CC3)n2)o1,4%,-5%
Clc1ccc2c(N3CCNCC3)ccnc2c1,-11%,-12%
CCOc1ccc(N2C(=O)CC(Sc3nc4ccc(OCC)cc4s3)C2=O)cc1 (centres undefined),-9%,·
COc1ccccc1C1SCCN1S(C)(=O)=O (centres undefined),-5%,·
O=C(Nc1ccccc1O)/C(=C\c1ccccc1)NC(=O)c1ccccc1,-13%,i
Cc1cc(Br)cn2c(Cc3ccccc3C(F)(F)F)c(-c3ccccc3)nc12,-9%,i
O=C1NC(=O)C(Nc2ccccc2)C(=O)N1,-11%,i
CCOC(=O)C1=C(COC(=O)c2ccccc2OC)NC(=O)NC1C (centres undefined),-5%,?
CCOC(=O)c1sc(N)c(C(=O)OCC)c1C,-28%,?
C#CCOCCOCCOCCNc1nc(N2CCN(C(=O)C([C@@H](C)CC)n3cc(C(N)COC(=O)C(F)(F)F)nn3)CC2)nc(N2CCN(C(=O)[C@H](Cc3cc4ccccc4[nH]3)n3cc(C(N)CO)nn3)CC2)n1 (some centres undefined),-7%,-16%
CN(C)CCNc1ncnc2c1ncn2[C@H]1CN(Cc2ccc(F)cc2)C[C@@H](CO)O1,4%,16%
CC(=O)Oc1ccc2nc(-c3ccc(Br)o3)oc(=O)c2c1,-12%,i
CCOC(=O)c1ccc(NC(=O)CCNC(=O)c2ccc([N+](=O)[O-])cc2)cc1,-5%,-7%
Cc1cccc(C)c1NC(=O)CSc1nnc(NC(=O)C2CC2)s1,-6%,-1%
COCCC(=O)Nc1ccc2c(c1)CN(C(=O)CCOC)CC2,-13%,i
O=C(NCc1ccc(Cl)cc1Cl)c1cccc(N2CCCS2(=O)=O)c1,-11%,-6%
CCN1CCN(C(=S)Nc2ccc(Cl)cc2)CC1,-13%,-20%
CC(=O)c1ccc(S(=O)(=O)N2CCN(c3ccccc3F)CC2)cc1,-3%,i
O=C(O)CCNC1CCCCC1,-8%,i
CCCN(CC(=O)Nc1ccc(F)c(F)c1F)C(=O)c1ccc2c(c1)NC(=O)CS2,-23%,i
CN(Cc1ccccc1)S(=O)(=O)c1ccc(Cl)c(C(=O)NCCCN2CCOCC2)c1,-10%,-23%
Cc1ccc2c(c1)c1c(c(=O)n(-c3cccc(Cl)c3)c(=O)n1CC(=O)c1ccc(Cl)cc1)n2C,-2%,-10%
CCOc1ccc(NC(=O)C(=O)NCCN2CCN(S(=O)(=O)c3ccccc3)CC2)cc1,-1%,-12%
N#Cc1cccc(NC(=S)Nc2ccccc2)c1,-7%,-19%
COc1cccc(CNC(=O)c2cnc(N3CCCC3)nc2C)c1,-7%,-6%
O=C(NCc1ccco1)c1ccc(OC2CCN(Cc3ccccn3)CC2)cc1,0%,-8%
C#CCCC(=O)c1ccccc1/C=[N+](\[O-])c1ccccc1,-16%,-6%
COc1ccc2c(c1OC)C(=O)OC2C1c2c(cc3c(c2OC)OCO3)CCN1C (centres undefined),-12%&-17%&-19%,-11%&-11%&-2%
CC(C)(C)n1cnc2cc(NCc3cccs3)ccc21,0%,?
Cc1sc2c(c1C)c(=O)n(-c1cccc(C(F)(F)F)c1)c(=O)n2Cc1ccccc1C#N,-12%,-11%
COc1ccc(C(=O)N2CCC(C(=O)c3ccc(F)cc3)CC2)cc1,-20%,-26%
O=C(NCc1ccccc1)c1ccc2ccccc2n1,-2%,-10%
CCN(CC)C(=O)CN1C(=O)c2cccc3cccc1c23,-8%,i
CC(C)(C)c1nnc(NC(=O)Nc2ccc(Cl)cc2)s1,-1%[7.34 µM],-6%[7.34 µM]
COC(=O)C1=C(C)N(CC2CC2)C(=NCCN2CCOCC2)N[C@H]1c1ccccc1,-1%,i
O=C(NCCc1ccccn1)c1nc(Cn2cc([N+](=O)[O-])cn2)no1,7%,11%
O=C(NCCCn1ccnc1)c1cnn2c1NC(c1ccccc1)CC2C(F)(F)F (centres undefined),-18%,-4%
O=C(COC(=O)CC1CC2CCC1C2)NC(=O)NC1CCCC1 (centres undefined),-8%,i
CCOc1ccc(NC(=O)COC(=O)c2ncc(Cl)c(Cl)c2Cl)cc1,-9%,i
CC(Cc1ccccc1)[n+]1cc(/N=C(\[O-])N(C)C)on1 (centres undefined),?,-1%
O=C(O)c1cccc(Nc2ncnc3ccc(Br)cc23)c1,-14%&5%,-2%&-2%
Cc1ccc(NS(=O)(=O)c2c(F)cc(F)c(Cl)c2F)cc1S(=O)(=O)N1CCOCC1,?,?
COc1ccc(NC(=O)NCCCN2CCc3ccccc3C2)cc1,1%,-3%
Nc1ccc(S(=O)(=O)NC2(C(F)(F)F)NC(=O)N(c3ccccc3F)C2=O)cc1 (centres undefined),-3%,5%
Cc1cc(C(=O)Nc2ccc(S(=O)(=O)N3CCCC3)cc2)no1,-7%,-2%
